Cruzain noTriton – qHTS Assay for Promiscuous and Specific Inhibitors of Cruzain (without detergent); Cruzipain (Trypanosoma cruzi), P25779; purified cruzain, Z-FR-AMC fluorescence, no detergent; Potency, µM, inactives show max response, negative = inhibition, actives largely listed as inhibitors; 2.3% of 200,000 active; AID 1476, 2009;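 also: plate controls were enzyme without inhibitor for no effect and buffer without enzyme for full effect; nearly all actives have a fitted effect of over 40% in size; top concentration of the series not given in the record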
Target sequence (P25779 123-467 limits assumed): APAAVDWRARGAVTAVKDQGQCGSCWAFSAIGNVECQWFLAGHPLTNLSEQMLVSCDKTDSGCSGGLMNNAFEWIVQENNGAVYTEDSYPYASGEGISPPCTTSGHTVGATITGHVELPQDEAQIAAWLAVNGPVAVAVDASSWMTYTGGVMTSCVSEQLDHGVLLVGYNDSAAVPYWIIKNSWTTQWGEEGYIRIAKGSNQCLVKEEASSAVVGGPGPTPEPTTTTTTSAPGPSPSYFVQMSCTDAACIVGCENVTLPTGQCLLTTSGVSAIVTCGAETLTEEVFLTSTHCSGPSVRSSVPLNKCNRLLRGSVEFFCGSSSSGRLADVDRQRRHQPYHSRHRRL
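Detergent-free condition (0.00005% Triton X-100) in acetate buffer pH 5.5 with DTT. 1.5 nM enzyme and compound were pre-mixed 15 min, then 2 uM Z-FR-AMC substrate added; reaction progress from fluorescence change between first and third reads (60 s).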
Lassa entry inh – qHTS for Inhibitors of binding or entry into cells for Lassa Virus. Lassa virus pseudotype entry inhibition, cell reporter; control for the full effect not named in the record. Potency, µM (series often up to 37.9 µM), for inactives: at the highest dose activity change, negative = inhibition, hits mostly inhibitors. 1.2% of 300,000 active. AID 540256, 2011; active means well fitted inhibition curve with a large enough effect; inconclusive means small, poorly fitted or top-dose-only effect, or effect the other way; inactive means flat fitted curve, though single readings scatter; tested in HEK293 cells; also: % is scaled to controls: 0 for no effect and ±100 for the full control effect; nearly all actives have a fitted effect of over 50% in size; luciferase read-out
NS1 inh – qHTS Assay for Inhibitors of Influenza NS1 Protein Function; S. cerevisiae slowed by influenza A NS1, growth recovery by OD600; Potency, µM (doses to about 46.1 µM), for inactives: at the top dose activity, positive = more growth; 0.4% of 270,000 active; active means well fitted rising curve with a large enough effect; inconclusive means small, poorly fitted or top-dose-only effect; inactive means no such curve, though single readings can be large or run the other way; also: nearly all actives have a fitted effect of over 50% in size
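S. cerevisiae expressing influenza A NS1, grown in glucose, washed, then diluted 1:100 into pH 6.0 -URA galactose medium with 23 nl compound. Growth recovery read as OD600; NS1-free strain serves as control.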
RE007 growth inh – qHTS Assay for Inhibitors of the HIV-1 protein Vpr. Potency, µM (top dose mostly 92.2 µM), without a hit: at the highest dose activity change, negative = less growth. AID 651644, 2012. 0.21% of 360,000 active. S. pombe RE007 Vpr strain, BacTiter-Glo ATP luminescence, 24 h; control for the full effect not named in the record; active = well fitted falling curve with a large enough effect; inconclusive = small, poorly fitted or top-dose-only effect; inactive = no such curve, though single readings can be large or run the other way;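 also: % is scaled to controls: 0 for no effect and ±100 for the full control effect; nearly all actives have a fitted effect of over 50% in size; the assay follows cell death caused by Vpr and the record does not say whether a fall means rescue or toxicity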
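Fission yeast strain RE007, carrying one chromosomally integrated HIV-1 vpr copy, was seeded at OD 0.01 in PMG+AL medium with 23 nL pinned compound. After 24 h at 30 °C and 99% humidity, viability was read by BacTiter-Glo luminescence.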
SARS PLpro yeast – qHTS of Yeast-based Assay for SARS-CoV PLP. S. cerevisiae expressing SARS-CoV PLpro, growth rescue; control for the full effect not named in the record. Potency, µM (titrated, usually from 32.9 µM), for inactives: top-dose activity, positive = growth rescue. 0.19% of 330,000 active; active means well fitted rising curve with a large enough effect; inconclusive means small, poorly fitted or top-dose-only effect; inactive means no such curve, though single readings can be large or run the other way; also: 0% is about no effect; nearly all actives have a fitted effect of over 55% in size; growth read by luminescence after 48 h
Marburg entry inh – qHTS for inhibitors of binding or entry into cells for Marburg Virus | AID 540276, 2011 | Potency, µM (series often up to 37.8 µM), for the others: at the highest dose activity change, negative = inhibition, most hits filed as inhibitors | 1.8% of 300,000 active | Marburg virus pseudotyped entry inhibition, cell reporter; control for the full effect not named in the record; about a third of the inactives were read at about 46 µM; active = well fitted inhibition curve with a large enough effect; inconclusive = small, poorly fitted or top-dose-only effect, or effect the other way; inactive = flat fitted curve, though single readings scatter; tested in HEK293 cells; about a fifth of its hits are not listed in these tables; also: % is scaled to controls: 0 for no effect and ±100 for the full control effect; luciferase read-out
StopGo reporter – High Throughput Screening for Foot and Mouth Disease Virus Antivirals | human cells with a luciferase reporter of 2A StopGo recoding; control for the full effect not named in the record | Potency, µM (series often up to 57.9 µM), for the others: at the top dose signal change, negative = less light | 1.2% of 410,000 active | AID 1159524, 2015; active = well fitted falling curve with a large enough effect; inconclusive = small, poorly fitted or top-dose-only effect; inactive = no such curve, though single readings can be large or run the other way; tested in HEK293T cells; also: % is scaled to controls: 0 for no effect and ±100 for the full control effect; nearly all actives have a fitted effect of over 45% in size; luciferase light after 4 h
Cruzain inh Det – qHTS Assay for Promiscuous and Specific Inhibitors of Cruzain (with detergent); 0.43% of 200,000 active; Cruzipain (Trypanosoma cruzi), P25779; Potency, µM, inactives show max response, negative = inhibition, most hits filed as inhibitors; AID 1478, 2009; purified cruzain, Z-FR-AMC fluorescence, 0.01% Triton;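 also: plate controls were neutral wells for no effect and buffer without enzyme for full effect; nearly all actives have a fitted effect of over 40% in size; top concentration of the series not given in the record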
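Sodium acetate buffer (100 mM, pH 5.5) containing 5 mM DTT and 0.01% Triton X-100 hosted 1.5 nM cruzain and test compound for 15 min at room temperature. Cleavage of 2 uM Z-FR-AMC was then tracked by fluorescence.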
* hit, by the source's call; ? = inconclusive; . = not tested or not shown; [ ] = another dose, or the depositor's remark. Unless noted, calls follow the shape of the dose curve; as a rule, active = well fitted curve in the direction sought with a large enough effect; inconclusive = small, poorly fitted or top-dose-only effect, or another doubt; inactive = no such curve, though single readings can be large; an effect the other way counts as inactive or inconclusive. Potency is read from the fitted curve at half-maximal effect.

SMILES | Cruzain noTriton | Lassa entry inh | NS1 inh | RE007 growth inh | SARS PLpro yeast | Marburg entry inh | StopGo reporter | Cruzain inh Det
CC1CCN(c2c([N+](=O)[O-])c(=O)n(-c3ccccc3)c3ccccc23)CC1 | 0% | 2% | -3% | -15% | -1% | -6%[46.1 µM] | 5% | 2.3%
Cc1ccc(S(=O)(=O)N2CCC(C(=O)NNC(=O)C3CC3)CC2)cc1Cl | . | 2% | . | 27% | 0% | ? | -10% | .
COc1ccc(-n2c(Cn3c(=O)sc4ccccc43)nnc2SCC(=O)N2CCOCC2)cc1 | 17% | . | -21% | 11% | -10% | -7% | 2% | 1.3%
CN1CCN(c2nc(N3CCN(CCO)CC3)nc3ccccc23)CC1 | 24% | ? | 3% | -6% | -2% | ? | 0% | -7.2%
CCCc1noc2c1/C(=N\O)CCC2 | 2% | 0% | -2% | -15% | -5% | ? | -9% | 4.2%
O=C(CCC(=O)OCC(=O)c1ccc([N+](=O)[O-])cc1)NC1CCCCC1 | 2% | 10% | 7% | -9% | 5% | 7% | 2% | -4.3%
Cc1cccc(-n2cc(C(=O)O)c(=O)cc2C)c1 | . | 11%[46.1 µM] | . | 10% | 4% | 16%[46.1 µM] | 18% | .
Cn1c(CCC(=O)OCC(=O)NCC(F)(F)F)nc(=O)c2ccccc21 | . | 2%[46.1 µM] | . | -11% | -3% | 9%[46.1 µM] | 1% | .
CC(NS(=O)(=O)c1ccc(OCC(=O)NCc2ccccn2)cc1)c1ccccc1 (stereo not given) | . | 1%[46.1 µM] | 11% | 25% | 2% | ? | 22% | .
Cc1ccc(-c2nnc(C)c(N3CC(C)OC(C)C3)n2)cc1 (stereo not given) | 29% | 6% | 23% | 6% | 1% | 10% | -21% | 2.4%
N#C/C(=C/c1ccc(F)cc1)c1nc(CCN2C(=O)c3ccccc3C2=O)cs1 | -1% | -8% | -6% | 17% | 4% | -7% | 16% | -3.9%
COc1cccc(NC(=O)Nc2ccc(C(C)(C)C)cc2)c1 | . | ? | -42% | ? | -2% | ? | 12% | .
O=C(NC1CCCC1)C1CC(=O)N(c2ccc(F)c(Cl)c2)C1 (stereo not given) | . | . | 7% | -5% | -1% | . | -2% | .
CN(C)c1ccc(C(C(=O)NC2CCCC2)N(Cc2cccnc2)C(=O)c2snc(C(N)=O)c2N)cc1 (stereo not given) | . | ? | -12% | ? | 0% | 18%[46.1 µM] | -12% | .
CCC(C)n1c(SCC(=O)Nc2cc(C)on2)nc2ccccc2c1=O (stereo not given) | -1% | -12% | -13% | 32% | -1% | 4µM* | -23% | -2.2%
CC(Oc1ccccc1)C(=O)N=C1SC2CS(=O)(=O)CC2N1Cc1ccccc1 (stereo not given) | . | . | -6% | 4% | 11% | . | -6% | .
COc1cccc(-c2ccc(NC(=O)C3CCCN(Cc4cnc(N(C)C)s4)C3)cc2)c1 (stereo not given) | . | . | -5% | -10% | -1% | . | ? | .
O=C(NCC1COCCO1)c1ccc2nc(Cc3cccc(Cl)c3)oc2c1 (stereo not given) | . | 19% | -24% | 3% | 0% | 12% | 35%[activator] | .
COC(=O)c1sccc1S(=O)(=O)Nc1ccc(N2CCCCC2)cc1 | . | -27% | -1% | 3% | 0% | -4%[46.1 µM] | -9% | .
COc1ccc(-n2ncc(C(C)NS(=O)(=O)c3ccc(C)s3)c2C)cc1 (stereo not given) | . | ? | -2% | 4% | 1% | -29% | -3% | .

As entered above:
`COc1cccc(-c2ccc(NC(=O)C3CCCN(Cc4cnc(N(C)C)s4)C3)cc2)c1` (stereo not given) | NS1 inh = -5%
`COc1cccc(NC(=O)Nc2ccc(C(C)(C)C)cc2)c1` | NS1 inh = -42%
`O=C(CCC(=O)OCC(=O)c1ccc([N+](=O)[O-])cc1)NC1CCCCC1` | SARS PLpro yeast = 5%
`COc1ccc(-n2c(Cn3c(=O)sc4ccccc43)nnc2SCC(=O)N2CCOCC2)cc1` | Marburg entry inh = -7%
`CN1CCN(c2nc(N3CCN(CCO)CC3)nc3ccccc23)CC1` | SARS PLpro yeast = -2%
`CC(NS(=O)(=O)c1ccc(OCC(=O)NCc2ccccn2)cc1)c1ccccc1` (stereo not given) | RE007 growth inh = 25%
`CCCc1noc2c1/C(=N\O)CCC2` | RE007 growth inh = -15%

Next part
SMILES | Cruzain noTriton | Lassa entry inh | NS1 inh | RE007 growth inh | SARS PLpro yeast | Marburg entry inh | StopGo reporter | Cruzain inh Det
CC1CC(C)(C)NC(=S)N1CCCC(=O)Nc1ccc(Cl)cc1 (stereo not given) | . | -26% | . | -12% | 2% | 1%[46.1 µM] | -17% | .
Clc1ccc(-c2csc(N3CCN(c4ccccc4)CC3)n2)cc1 | ? | 3% | 3% | 19% | . | 2% | ? | 4.5%
Cc1ccc2[nH]c(=O)c(CN(CC3CCCO3)S(=O)(=O)c3c(C)ccc4nsnc34)cc2c1 (stereo not given) | ? | ? | 6% | -9% | -1% | ? | ? | -7.3%
COC(=O)c1ccc(CN2CCCCC2)cc1 | . | . | 4% | 1% | 2% | . | 5% | .
COc1ccc(NC(=O)c2cc(-c3cccc(OC)c3)on2)cc1 | . | ? | . | -6% | -1% | 23%[46.1 µM] | -9% | .
COc1cc(C2CC(=O)c3cnc(N4CCN(Cc5ccccc5)CC4)nc3C2)cc(OC)c1OC (stereo not given) | 11% | 23µM* | -42% | 3% | 4% | ? | 16µM* | 3.6%
CC(=O)c1ccc(OCC(O)COc2ccc(C(C)=O)cc2)cc1 | 2% | 7% | -7% | 10% | -6% | 1% | . | 9.1%
COc1ccc(NC(C)=O)cc1CP(=O)(c1ccccc1)c1ccccc1 | . | . | 3% | -8% | 0% | . | -13% | .
CCOC(=O)N1CCC(NC(=O)C2=CCN(S(=O)(=O)c3ccccc3)CC2)CC1 | . | 18%[46.1 µM] | -2% | -19% | 0% | ? | 8% | .
COc1ccc(-c2cn3c(C)c(C(=O)Nc4ccncc4)sc3n2)cc1 | 16% | . | 12% | 5% | 1% | . | ? | -24%
CCCc1c(C)nc2c(Br)cccc2c1Cl | 3% | . | 11% | -2% | 0% | . | -1% | -4.3%
Cc1ccc(NC(=O)NCC2CCN(Cc3cccc(Cl)c3)CC2)c(Cl)c1 | . | . | -7% | 3% | 0% | . | -18% | .
CC(CCc1ccccc1)NC(=O)C(C)OC(=O)c1ccco1 (stereo not given) | . | 12% | . | 11% | 1% | ? | -2% | .
COc1ccc(C=C2C=C(C(C)(C)C)C(=O)C(C(C)(C)C)=C2)cc1OC | . | 14%[46.1 µM] | -16% | 2% | 0% | ? | 22µM* | .
CN(CC(=O)NNC(=O)CNC(=O)c1cccs1)S(=O)(=O)c1ccc(Cl)cc1 | . | 5% | . | -17% | -9% | 5%[46.1 µM] | 10% | .
COc1cccc(N(C(=O)CCl)C(C(=O)NCCc2ccccc2)c2cccs2)c1 (stereo not given) | -15% | ? | -25% | 8% | -21% | ? | 16µM* | -2.5%
COC(=O)c1ccc(N=c2sc(C(=O)OC)cc(=O)n2C)cc1 | . | . | -20% | -4% | 4% | . | 32µM* | .
C=CCc1cccc(/C=N/NC(=O)C(=O)Nc2ccc(C)cc2)c1O | . | 0% | 1% | 2% | 1% | 2%[46.1 µM] | 15% | .
CCOc1ccc2c(ccc(/C=C/c3cc(C)c4cccnc4c3O)[n+]2C)c1 | . | ? | . | ? | . | 16µM* | ? | .
O=S(=O)(NCCOc1cccc2cccnc12)c1ccc(F)cc1 | -4% | 3% | -14% | 9% | 7% | -1% | . | -4.0%

The last four compounds of the part above come first, to join the parts.
SMILES | Cruzain noTriton | Lassa entry inh | NS1 inh | RE007 growth inh | SARS PLpro yeast | Marburg entry inh | StopGo reporter | Cruzain inh Det
COC(=O)c1ccc(N=c2sc(C(=O)OC)cc(=O)n2C)cc1 | . | . | -20% | -4% | 4% | . | 32µM* | .
C=CCc1cccc(/C=N/NC(=O)C(=O)Nc2ccc(C)cc2)c1O | . | 0% | 1% | 2% | 1% | 2%[46.1 µM] | 15% | .
CCOc1ccc2c(ccc(/C=C/c3cc(C)c4cccnc4c3O)[n+]2C)c1 | . | ? | . | ? | . | 16µM* | ? | .
O=S(=O)(NCCOc1cccc2cccnc12)c1ccc(F)cc1 | -4% | 3% | -14% | 9% | 7% | -1% | . | -4.0%
CCn1c(=O)c(C(=O)Nn2c(C)nc3ccccc3c2=O)c(O)c2ccccc21 | ? | ? | -36% | ? | -28% | -15% | 3% | -3.0%
CSCC[C@H](NC(=O)Cc1c(C)c2cc3c4c(oc3cc2oc1=O)CCCC4)C(=O)O | . | . | 4% | -13% | 2% | . | 2% | .
CN1CCN(CC#Cc2ccccc2)CC1CCO (stereo not given) | . | -22% | 7% | -5% | -9% | 26% | -6% | .
O=C(NCCN1C(=O)S/C(=C\c2ccccc2)C1=O)C1CCN(S(=O)(=O)c2cccs2)CC1 | -15% | 16% | 8% | -13% | -9% | -2% | 5% | -7.7%
Cc1cccc(C)c1OCC(=O)Nc1ccccc1C(F)(F)F | . | -10%[46.1 µM] | -1% | -3% | -1% | -24%[46.1 µM] | -1% | .
O=C(/C=C/c1ccc(Cl)cc1)NCc1ccncc1 | ? | -4% | -8% | 1% | 4% | -9% | -14% | -3.2%
COc1ccc(NC(=O)CN(C)S(=O)(=O)c2ccc3c(c2)CC(C)N3C(C)=O)c(OC)c1 (stereo not given) | . | -23%[46.1 µM] | 5% | 3% | -1% | 16%[46.1 µM] | -9% | .
Cc1ccc(NC(=O)CCn2cnc3ccccc3c2=O)cc1 | . | ? | -2% | -8% | -1% | 0% | 28% | .

No enrichment for hits; about 4.7% have a hit in one of these screens.
